# High-throughput results deposited in PubChem BioAssay by Broad Institute.
# STAT3 SMM: binds human STAT3 on microarray; Small molecule microarray, His-STAT3 binding, anti-His fluorescence; hit rate 0.2% among 17,000; calls only;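 active = compounds whose four printed spots each show fluorescence over background unusually high for their array block, chance value under 7%; compounds were printed on slides so no solution concentration is given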;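 also: about 2 pmol printed per array spot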
# Target sequence (P40763 whole entry, looked up): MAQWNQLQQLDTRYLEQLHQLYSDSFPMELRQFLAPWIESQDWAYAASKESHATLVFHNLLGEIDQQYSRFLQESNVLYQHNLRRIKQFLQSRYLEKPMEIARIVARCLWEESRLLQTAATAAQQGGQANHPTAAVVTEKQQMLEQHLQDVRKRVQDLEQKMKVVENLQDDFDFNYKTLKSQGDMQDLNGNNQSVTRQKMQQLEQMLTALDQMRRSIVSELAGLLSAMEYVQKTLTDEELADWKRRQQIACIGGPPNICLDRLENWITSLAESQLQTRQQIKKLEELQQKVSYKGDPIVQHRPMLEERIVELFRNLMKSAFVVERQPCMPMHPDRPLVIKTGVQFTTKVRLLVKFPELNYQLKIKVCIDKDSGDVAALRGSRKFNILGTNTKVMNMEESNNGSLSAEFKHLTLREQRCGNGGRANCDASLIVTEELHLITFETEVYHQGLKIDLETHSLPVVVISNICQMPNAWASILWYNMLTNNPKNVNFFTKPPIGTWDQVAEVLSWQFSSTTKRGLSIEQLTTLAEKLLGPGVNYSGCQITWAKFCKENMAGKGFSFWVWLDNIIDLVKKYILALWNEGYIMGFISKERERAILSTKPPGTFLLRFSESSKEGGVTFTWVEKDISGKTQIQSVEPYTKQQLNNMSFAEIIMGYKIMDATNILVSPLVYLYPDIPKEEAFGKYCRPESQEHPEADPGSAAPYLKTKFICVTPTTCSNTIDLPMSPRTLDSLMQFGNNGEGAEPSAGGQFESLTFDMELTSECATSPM
# ID4 binder: binds human ID4 protein on microarray; calls only; P47928; hit rate 1.2% among 31,000; small molecule microarray, Flag-ID4 binding, fluorescence F/B; AID 624137;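 active = spot signal over background at p below 0.07 in all four prints; compounds were printed on slides so no solution concentration is given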;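 also: a binder raises fluorescence above local background on the spot; about 2 pmol printed per array spot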
# Target sequence (P47928 whole entry, looked up): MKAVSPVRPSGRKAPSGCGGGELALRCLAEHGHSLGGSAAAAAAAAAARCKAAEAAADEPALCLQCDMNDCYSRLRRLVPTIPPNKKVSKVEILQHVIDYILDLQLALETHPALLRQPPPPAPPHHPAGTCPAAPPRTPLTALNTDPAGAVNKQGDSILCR
# Myc binder: binds human c-Myc on microarray; P01106; hit rate 1.5% among 17,000; AID 624141; calls only; small molecule microarray, His-c-Myc binding, anti-His fluorescence;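 active = spot fluorescence over background with P-value below 7% in all four replicate spots, showing protein binding; compounds were printed on slides so no solution concentration is given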;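 also: score is binary with 100 for all four spots passing and 0 otherwise; about 2 pmol printed per array spot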
# p53 mut binder: mutant p53 (human) binding; small molecule microarray binding, anti-GST fluorescence; calls only; hit rate 0.4% among 17,000; AID 624136;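 active = compounds whose four printed spots each glow above background more than chance allows, each with a p-value under 7%; compounds were printed on slides so no solution concentration is given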;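 also: about 2 pmol printed per array spot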
# Calls only; i = inactive; nt = no result given. Only part of the results is shown; rates above refer to the full screens.
Structure | STAT3 SMM | Myc binder | ID4 binder | p53 mut binder
C[C@@H]1CN([C@H](C)CO)C(=O)c2cc(NC(=O)Nc3cccc4ccccc34)ccc2O[C@@H]1CN(C)C(=O)NC1CCCCC1 | i | i | i | i
C[C@@H]1CN([C@@H](C)CO)C(=O)c2cc(NC(=O)CCC(F)(F)F)ccc2O[C@@H](C)CCCCO[C@@H]1CN(C)C | i | i | i | i
CC(C)NC(=O)Nc1ccc2c(c1)C(=O)N([C@H](C)CO)C[C@@H](C)[C@@H](CN(C)S(=O)(=O)c1cccs1)OCCCC[C@@H](C)O2 | i | i | i | i
C[C@H]1CN([C@@H](C)CO)C(=O)Cc2cc(NS(=O)(=O)c3ccccc3)ccc2O[C@H]1CN(C)C(=O)NC1CCCCC1 | i | i | i | i
COc1cc(CO)cc(I)c1O[C@H]1C=C(C(=O)NCCO)C[C@@H](NCc2ccccc2F)[C@@H]1O | i | i | i | i
C=CCN1C(=O)[C@@]2(Cc3ccccc3)N=C(c3ccc(OCCCO)cc3)O[C@H]2c2ccccc21 | i | i | i | i
O=C(CN1C(=O)C2C3C=CC(C4CC34)C2C1=O)NCc1ccco1 (stereo unspecified) | i | i | i | i
OC(c1ccccc1)C1CCN(CCc2ccccc2)CC1 (stereo unspecified) | i | i | i | i
Cc1noc(C)c1S(=O)(=O)Nc1ccc2c(c1)C(=O)N([C@H](C)CO)C[C@@H](C)[C@@H](CN(C)C(=O)CCC(F)(F)F)OCCCC[C@@H](C)O2 | i | i | i | i
COc1ccc(NC(=O)c2ccc(-c3ccc(-c4noc(C)n4)cc3C)cc2)cc1N1CCN(C)CC1 | i | i | i | i
COc1cc(OC)c(NC(=O)CSc2nnc(-c3ccccc3)n2-c2ccccc2)cc1Cl | i | i | i | i
Cc1ccc2nc(-c3ccc(NC(=O)CSc4nncn4C)cc3)sc2c1 | i | i | i | i
C[C@H](CO)N1C[C@H](C)[C@H](CN(C)C(=O)Nc2cccc3ccccc23)Oc2ccc(NC(=O)C3CC3)cc2CC1=O | i | i | i | i
C[C@@H]1CN([C@@H](C)CO)C(=O)c2cccc(NC(=O)Nc3ccc(C(F)(F)F)cc3)c2O[C@H]1CN(C)Cc1ccc(C(=O)O)cc1 | i | i | i | i
CC1=C[C@H](O)[C@H]2C(C)(C)CCC[C@]2(C)[C@@]1(O)CO | i | i | i | i
C[C@@H]1CN([C@@H](C)CO)C(=O)c2cc(NS(=O)(=O)c3ccccc3)ccc2O[C@@H](C)CCCCO[C@H]1CN(C)C(=O)CCC(F)(F)F | i | i | i | i
Cc1noc(C)c1S(=O)(=O)Nc1ccc2c(c1)CC(=O)N([C@H](C)CO)C[C@@H](C)[C@H](CN(C)C(=O)Nc1ccc(F)cc1)O2 | i | i | i | i
CNC[C@@H]1Oc2c(NC(=O)c3ccc(-c4nccs4)cc3)cccc2C(=O)N([C@@H](C)CO)C[C@@H]1C | i | i | i | i
Cc1nc2ccccn2c1-c1csc(Nc2cccc(C(=O)O)c2)n1 | i | i | i | i
COc1cccc(OC)c1C(=O)NC(=S)NCc1ccco1 | i | i | i | i
CSc1ccccc1NC(=O)C(C)N(c1ccccc1)S(C)(=O)=O (stereo unspecified) | i | i | i | i
CC(=O)c1cccc(NC(=O)CSC2=C(C#N)C(c3ccccc3C)C3=C(CCCC3=O)N2)c1 (stereo unspecified) | i | i | i | i
COc1ccc(-c2nnc(SCC(=O)Nc3c(C)n[nH]c3C)n2-c2ccccc2)cc1OC | i | i | i | i
COc1ccc(CN(C)C[C@H]2Oc3c(NC(=O)c4ccc(-c5nccs5)cc4)cccc3C(=O)N([C@@H](C)CO)C[C@H]2C)cc1 | i | i | i | i
Cc1c(NC(=O)/C(C#N)=C/c2cccc([N+](=O)[O-])c2)c(=O)n(-c2ccccc2)n1C | i | i | i | i
Cc1noc(C)c1NC(=O)N(C)C[C@H]1OCCCC[C@H](C)Oc2ccc(NC(=O)CCC(F)(F)F)cc2C(=O)N([C@@H](C)CO)C[C@@H]1C | i | i | i | i
C[C@@H]1CN([C@@H](C)CO)C(=O)Cc2cc(NC(=O)Nc3ccccc3)ccc2O[C@@H]1CN(C)CC1CC1 | i | i | i | i
C[C@@H]1CN([C@H](C)CO)C(=O)Cc2cc(NC(=O)Cn3cnnn3)ccc2O[C@H]1CN(C)S(=O)(=O)c1ccccc1 | i | i | i | i
C[C@H](CO)N1C[C@H](C)[C@H](CN(C)Cc2ccc3c(c2)OCO3)Oc2ccc(NC(=O)NC3CCCCC3)cc2C1=O | i | i | i | i
Cc1noc(C)c1NC(=O)Nc1ccc2c(c1)C(=O)N([C@H](C)CO)C[C@H](C)[C@H](CN(C)C(=O)CCCN(C)C)OCCCC[C@H](C)O2 | i | i | i | i
C=C1C2=C(C(=O)N1OC)[C@H](O)[C@](C)(O)[C@H](CCCCC)O2 | i | i | nt | i
COc1ccc(-c2nc(SCC(=O)Nc3c(F)cc(F)cc3Br)n[nH]2)cc1 | i | i | i | i
C[C@H]1CN([C@@H](C)CO)C(=O)c2cc(NC(=O)C3CC3)ccc2O[C@H]1CN(C)Cc1ccncc1 | i | i | i | i
C[C@H](CO)N1C[C@H](C)[C@H](CN(C)Cc2ccc(C(F)(F)F)cc2)Oc2ccc(NC(=O)CCN3CCOCC3)cc2CC1=O | i | i | i | i
C[C@H](CO)N1C[C@H](C)[C@@H](CN(C)Cc2ccc(C(=O)O)cc2)Oc2c(cccc2N(C)C)C1=O | i | i | i | i
COc1ccc(S(=O)(=O)N(C)C[C@H]2Oc3ccc(NC(=O)Nc4ccc(C(F)(F)F)cc4)cc3C(=O)N([C@H](C)CO)C[C@@H]2C)cc1 | i | i | i | i
Cc1ccc(S(=O)(=O)Nc2ccc3c(c2)C(=O)N([C@@H](C)CO)C[C@H](C)[C@@H](CN(C)C(=O)CCC(F)(F)F)OCCCC[C@H](C)O3)cc1 | i | i | nt | i
COc1cc(OC)nc(NC(=O)CSc2nc3ccccc3o2)n1 | i | i | i | i
N#CCCn1c(CC(N)=O)nc2ccccc21 | i | i | i | i
C[C@H](CO)N1C[C@H](C)[C@H](CN(C)C(=O)CCCN(C)C)OCCCC[C@H](C)Oc2ccc(NC(=O)Nc3ccc(F)cc3)cc2C1=O | i | i | nt | i

# Ordered by molar mass (high to low): 3 of the compounds above
Structure | STAT3 SMM | Myc binder | ID4 binder | p53 mut binder
C[C@H](CO)N1C[C@H](C)[C@H](CN(C)Cc2ccc(C(F)(F)F)cc2)Oc2ccc(NC(=O)CCN3CCOCC3)cc2CC1=O | i | i | i | i
C=CCN1C(=O)[C@@]2(Cc3ccccc3)N=C(c3ccc(OCCCO)cc3)O[C@H]2c2ccccc21 | i | i | i | i
C=C1C2=C(C(=O)N1OC)[C@H](O)[C@](C)(O)[C@H](CCCCC)O2 | i | i | nt | i

# 2 entries drawn at random from the list so far, as already listed:
Structure | STAT3 SMM | Myc binder | ID4 binder | p53 mut binder
COc1cc(OC)nc(NC(=O)CSc2nc3ccccc3o2)n1 | i | i | i | i
C=C1C2=C(C(=O)N1OC)[C@H](O)[C@](C)(O)[C@H](CCCCC)O2 | i | i | nt | i

# Next section:
Structure | STAT3 SMM | Myc binder | ID4 binder | p53 mut binder
NC(=O)COc1ccc(NC(=O)c2cccnc2)cc1 | i | i | i | i
COc1cc(O)cc2cc3c(c(O)c12)C(=O)C[C@@](C)(O)C3 | i | i | nt | i
C[C@H](CO)N1C[C@H](C)[C@@H](CN(C)Cc2ccc(Oc3ccccc3)cc2)Oc2c(NC(=O)c3ccncc3)cccc2C1=O | i | i | i | i
C[C@@H]1CCCCO[C@H](CN(C)C)[C@@H](C)CN([C@H](C)CO)C(=O)c2cc(NS(=O)(=O)c3ccc(Cl)cc3)ccc2O1 | i | i | i | i
O=C(c1cc2ccccc2oc1=O)N(Cc1ccccc1)c1ccccn1 | i | i | i | i
OC(CN1CCOCC1)Cn1c2ccccc2c2ccccc21 (stereo unspecified) | i | i | i | i
C[C@@H]1CN([C@@H](C)CO)C(=O)c2cccc(NC(=O)c3nc4ccccc4s3)c2O[C@@H]1CN(C)S(=O)(=O)c1cccs1 | i | i | i | i
C[C@@H]1CN([C@@H](C)CO)C(=O)c2cc(N(C)C)ccc2O[C@@H](C)CCCCO[C@H]1CN(C)Cc1ccccc1 | i | i | i | i
CSc1nc(N)nc(SC(C(=O)O)c2ccccc2)c1C#N (stereo unspecified) | i | i | i | i
C[C@H](CO)N1C[C@H](C)[C@@H](CN(C)C)Oc2c(NS(=O)(=O)c3cn(C)cn3)cccc2C1=O | i | i | i | i
C[C@@H]1CN([C@H](C)CO)C(=O)c2cc(NC(=O)NC3CCCCC3)ccc2O[C@H]1CN(C)S(=O)(=O)c1cccs1 | i | i | i | i
Cc1cc([N+](=O)[O-])nn1CC(=O)NCc1ccccc1 | i | i | i | i
O=C(NCc1ccccc1)C1=C[C@@H](c2cccs2)C[C@@H](OCCCCO)O1 | i | i | i | i
CCc1ccc(N(CC(=O)NC)S(C)(=O)=O)cc1 | i | i | i | i
Cc1noc(C)c1S(=O)(=O)N(C)C[C@@H]1Oc2ccc(NS(=O)(=O)c3cccs3)cc2C(=O)N([C@H](C)CO)C[C@@H]1C | i | i | i | i
C=CC(COC(C)=O)NS(=O)(=O)c1ccc(Br)cc1 (stereo unspecified) | i | i | i | i
COc1ccc(C)cc1NC(=O)CS(=O)(=O)c1ccccc1 | i | i | i | i
O=C(COc1ccccc1)Nc1ncc2c(n1)CCCC2=O | i | i | i | i
C[C@H]1CCCCO[C@@H](CN(C)S(=O)(=O)c2ccccc2)[C@@H](C)CN([C@@H](C)CO)C(=O)c2cc(NC(=O)C3CCCCC3)ccc2O1 | i | i | i | i
COc1ccc(CN(C)C[C@H]2Oc3ccc(NC(=O)Nc4ccc(OC)cc4)cc3C(=O)N([C@@H](C)CO)C[C@H]2C)cc1 | i | i | i | i
O=C(NCCCn1cc(Br)cn1)Nc1ccccc1C(F)(F)F | i | i | i | i
CC(C)NC(=O)Nc1cccc2c1O[C@@H](CN(C)Cc1ccc(Oc3ccccc3)cc1)[C@H](C)CN([C@H](C)CO)C2=O | i | i | i | i
Cc1ccc(N(C(C)C(=O)Nc2cccc(C(F)(F)F)c2)S(C)(=O)=O)cc1 (stereo unspecified) | i | i | i | i
C=C1CC[C@H]2[C@](C)(CCC[C@]2(C)C(=O)OC)[C@H]1CC/C(C)=C/C(=O)O | i | i | i | i
CC(C)NC(=O)Nc1ccc2c(c1)C(=O)N([C@@H](C)CO)C[C@H](C)[C@@H](CN(C)C(=O)c1ccncc1)OCCCC[C@H](C)O2 | i | i | i | i
COc1cc2nc3occc3c(OC)c2cc1OCC(O)C(C)(C)O (stereo unspecified) | i | i | i | i
COc1cc(C(=O)OCC2(O)COC(OCC3OC(Oc4c(OC)cc(CO)cc4OC)C(O)C(O)C3O)C2O)cc(OC)c1O (stereo unspecified) | i | i | i | i
O=C(NCc1nc2ccccc2[nH]1)C1=C[C@@H](c2csc3ccccc23)C[C@@H](OCc2ccc(CO)cc2)O1 | i | i | nt | i
C[C@H](CO)N1C[C@H](C)[C@@H](CN(C)C(=O)Nc2ccc(C(F)(F)F)cc2)Oc2c(NS(=O)(=O)c3ccc(Cl)cc3)cccc2C1=O | i | i | i | i
Cc1[nH]c(=O)[nH]c(=O)c1NS(=O)(=O)c1ccc2c(c1)CCCC2 | i | i | i | i
C[C@@H]1O[C@@H](O[C@@H]2[C@@H](O)[C@H](O[C@@H]3[C@@H](O)[C@H](C)O[C@@H](O[C@H]4[C@H](O[C@H]5CC[C@@]6(C)C(CC[C@]7(C)C6CC=C6[C@@H]8CC(C)(C)CC[C@]8(C(=O)O)CC[C@]67C)[C@]5(C)CO)OC[C@H](O)[C@@H]4O)[C@@H]3O)O[C@H](CO)[C@H]2O[C@@H]2O[C@H](CO)[C@@H](O[C@@H]3OC[C@@H](O)[C@H](O)[C@H]3O)[C@H](O)[C@H]2O)[C@H](O)[C@H](O)[C@H]1O (stereo partly specified) | i | i | nt | i
COc1ccc(S(=O)(=O)N(C)C[C@@H]2Oc3c(NS(=O)(=O)c4ccccc4)cccc3C(=O)N([C@H](C)CO)C[C@H]2C)cc1 | i | i | i | i
C[C@H](CO)N1C[C@H](C)[C@@H](CN(C)Cc2ccc(C(F)(F)F)cc2)Oc2ccc(NC(=O)C3CC3)cc2C1=O | i | i | i | i
C[C@H](CO)N1C[C@H](C)[C@H](CN(C)Cc2ccc3c(c2)OCO3)Oc2ccc(NC(=O)Nc3ccc(F)cc3)cc2C1=O | i | i | i | i
Cc1noc(C)c1S(=O)(=O)N(C)C[C@@H]1Oc2ccc(NC(=O)Nc3ccc(F)cc3)cc2CC(=O)N([C@H](C)CO)C[C@@H]1C | i | i | i | i
C[C@@H]1CCCCO[C@@H](CN(C)S(=O)(=O)c2ccccc2)[C@H](C)CN([C@@H](C)CO)C(=O)c2cc(N(C)C)ccc2O1 | i | i | i | i
COc1ccc(NC(=O)Nc2cccc3c2O[C@H](CN(C)Cc2ccccc2)[C@@H](C)CN([C@H](C)CO)C3=O)cc1 | i | i | nt | i
C[C@@H]1CN([C@H](C)CO)C(=O)c2cc(NC(=O)CCCN(C)C)ccc2O[C@@H]1CN(C)C | i | i | i | i
C[C@@H]1CN([C@@H](C)CO)C(=O)Cc2cc(NS(=O)(=O)c3cccs3)ccc2O[C@@H]1CN(C)C(=O)Nc1cccc2ccccc12 | i | i | i | i
